PrP 5UTR inh = suppresses PrP 5' UTR mRNA reporter expression; inhibition, % (concentration not given with the values); cell-based PrP 5' UTR mRNA reporter, plate reader; hit rate 0.35% among 340,000; AID 488862;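 active = every replicate at 50% or more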;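 note: 0 = median of the neutral control wells; tested in H4 reporter cells; numbers are from one replicate; inactives centre near -14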
Autofluor counter = compound fluorescence in toxin protease inhibitor counterscreen | compound autofluorescence counterscreen, microsphere flow cytometry; hits give high values | fluorescence intensity (no concentration beside the values) | hit rate 3.1% among 360,000;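 active = at least 3 SD above the mean of all compounds, about 16000 in these data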;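 note: 100 nL of 1 mM stock went into each well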
Numbers without * were called inactive; x = no result given; & = joins results of further samples.

Each structure is followed by: PrP 5UTR inh	Autofluor counter
#1 CC(=O)NCCCCCC(=O)O
    x	5841
#2 O=C(Cn1ccnc1[N+](=O)[O-])NCCO
    x	5764
#3 COc1cncc(C#Cc2ccccn2)c1
    x	4453
#4 CC(=O)N1C[C@H](O)C[C@H]1C(=O)O
    -10	5615
#5 CCC[C@H](N[C@@H](C)C(=O)N1[C@H](C(=O)O)C[C@@H]2CCCC[C@@H]21)C(=O)OCC
    -6	5609
#6 Cc1onc(-c2ccccc2Cl)c1C(=O)N[C@@H]1C(=O)N2[C@@H]1SC(C)(C)[C@@H]2C(=O)O
    -1&-14	5794&4124
#7 C=C1c2cccc(O)c2C(=O)C2C(=O)[C@]3(O)C(=O)C(C(N)=O)C(=O)[C@@H](N(C)C)[C@@H]3[C@@H](O)[C@H]12 (some centres undefined)
    -19	4448
#8 O=C(O)[C@@H]1[C@H]2C[C@H]3c4[nH]c5ccccc5c4CCN3C[C@@H]2CC[C@@H]1O
    -11	4658
#9 CC[C@@H]1C(=O)OC[C@@H]1Cc1cncn1C
    -21	5504

Some of the entries so far, with one line to a screen.
2. O=C(Cn1ccnc1[N+](=O)[O-])NCCO
9. CC[C@@H]1C(=O)OC[C@@H]1Cc1cncn1C
6. Cc1onc(-c2ccccc2Cl)c1C(=O)N[C@@H]1C(=O)N2[C@@H]1SC(C)(C)[C@@H]2C(=O)O
3. COc1cncc(C#Cc2ccccn2)c1
Screen / compound no.	2	9	6	3
PrP 5UTR inh	x	-21	-1&-14	x
Autofluor counter	5764	5504	5794&4124	4453

Screening data (PubChem BioAssay)

This is a subset, so the mix of outcomes need not match the whole.
